Ran FRET – inhibitors of Ran–importin-beta complex formation, primary screen, biochemical, CFP-Ran/YFP-importin-beta FRET, RCC1, cell-free (AID 434961); CFP-Ran/YFP-importin-beta FRET, cell-free; hits give high values; inhibition, %; Regulator of chromosome condensation (Homo sapiens) + GTP-binding nuclear protein Ran …; actives 0.2% (n = 7,700);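 active = more than half of the replicate wells above 15% inhibition; inconclusive = exactly half above it; inactive = fewer than half above it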;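 note: 0% = DMSO wells and 100% inhibition = RanGDP control wells on each plate; stock of unstated strength diluted about 400-fold; mean of two wells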
Starred values were filed as active, the others as inactive; ? = inconclusive. This is a subset. The share of hits here may be higher or lower than overall.

SMILES | Ran FRET
C[C@@H]1CCCCO[C@H](CN(C)C(=O)Nc2ccc3c(c2)OCO3)[C@H](C)CN([C@@H](C)CO)C(=O)c2cc(NS(C)(=O)=O)ccc2O1 | ?
C[C@H]1CN([C@@H](C)CO)C(=O)CCCn2cc(nn2)CO[C@@H]1CN(C)Cc1ccc(C(F)(F)F)cc1 | -6.8
CNC[C@@H]1OCCCC[C@@H](C)Oc2ccc(NC(=O)C3CCCCC3)cc2C(=O)N([C@H](C)CO)C[C@@H]1C | 6.8
C[C@@H]1CCCCO[C@H](CN(C)C)[C@H](C)CN([C@H](C)CO)C(=O)c2cc(N(C)C)ccc2O1 | -4.0
C[C@H]1CN([C@@H](C)CO)C(=O)Cc2cc(NC(=O)Cn3cnnn3)ccc2O[C@@H]1CN(C)S(=O)(=O)c1ccccc1 | 2.1
CC(C)NC(=O)N(C)C[C@@H]1Oc2ccc(NC(=O)C3CC3)cc2C(=O)N([C@H](C)CO)C[C@H]1C | -0.5
C[C@@H]1CN([C@@H](C)CO)C(=O)c2cc(NS(C)(=O)=O)ccc2O[C@@H](C)CCCCO[C@@H]1CN(C)Cc1ccccc1 | 11
C[C@H]1CCCCO[C@@H](CN(C)Cc2ccncc2)[C@@H](C)CN([C@@H](C)CO)C(=O)c2cc(N(C)C)ccc2O1 | 1.7

Of the compounds above, these have four or more nitrogen atoms:
SMILES | Ran FRET
C[C@@H]1CCCCO[C@H](CN(C)C(=O)Nc2ccc3c(c2)OCO3)[C@H](C)CN([C@@H](C)CO)C(=O)c2cc(NS(C)(=O)=O)ccc2O1 | ?
C[C@H]1CN([C@@H](C)CO)C(=O)CCCn2cc(nn2)CO[C@@H]1CN(C)Cc1ccc(C(F)(F)F)cc1 | -6.8
C[C@H]1CN([C@@H](C)CO)C(=O)Cc2cc(NC(=O)Cn3cnnn3)ccc2O[C@@H]1CN(C)S(=O)(=O)c1ccccc1 | 2.1
CC(C)NC(=O)N(C)C[C@@H]1Oc2ccc(NC(=O)C3CC3)cc2C(=O)N([C@H](C)CO)C[C@H]1C | -0.5
C[C@H]1CCCCO[C@@H](CN(C)Cc2ccncc2)[C@@H](C)CN([C@@H](C)CO)C(=O)c2cc(N(C)C)ccc2O1 | 1.7

The results go on:
SMILES | Ran FRET
C[C@@H]1CN([C@@H](C)CO)C(=O)CCCn2cc(nn2)CO[C@@H]1CN(C)C(=O)Nc1ccccc1C(F)(F)F | 2.3
Cc1noc(C)c1NC(=O)Nc1cccc2c1O[C@@H](CN(C)C(=O)Nc1c(C)noc1C)[C@@H](C)CN([C@H](C)CO)C2=O | -2.5
C[C@H]1CN([C@@H](C)CO)C(=O)c2cccc(NC(=O)Nc3ccccc3)c2O[C@H]1CN(C)C(=O)NC1CCCCC1 | -3.6
Cc1noc(C)c1S(=O)(=O)Nc1ccc2c(c1)C(=O)N([C@H](C)CO)C[C@H](C)[C@@H](CN(C)C(=O)Nc1ccc(F)cc1)O2 | -2.5
Cc1noc(C)c1S(=O)(=O)Nc1ccc2c(c1)C(=O)N([C@@H](C)CO)C[C@@H](C)[C@H](CN(C)C(=O)CCC(F)(F)F)OCCCC[C@@H](C)O2 | -1.9
Cc1noc(C)c1NC(=O)Nc1ccc2c(c1)C(=O)N([C@@H](C)CO)C[C@@H](C)[C@H](CN(C)C)OCCCC[C@H](C)O2 | -4.3
C[C@@H]1CN([C@@H](C)CO)C(=O)c2cc(NC(=O)Nc3ccc4c(c3)OCO4)ccc2O[C@@H](C)CCCCO[C@H]1CN(C)C(=O)c1ccccc1 | -0.5
COc1ccc(S(=O)(=O)Nc2ccc3c(c2)C(=O)N([C@H](C)CO)C[C@H](C)[C@H](CN(C)S(=O)(=O)c2c(C)noc2C)O3)cc1 | -3.7
CC(C)NC(=O)Nc1cccc2c1O[C@@H](CN(C)CC1CC1)[C@H](C)CN([C@H](C)CO)C2=O | -1.8
C[C@@H]1CN([C@@H](C)CO)C(=O)Cc2cc(NS(C)(=O)=O)ccc2O[C@H]1CN(C)Cc1ccc(-c2ccccc2)cc1 | -3.9
C[C@@H]1CN([C@@H](C)CO)C(=O)Cc2cc(NC(=O)Nc3cccc4ccccc34)ccc2O[C@@H]1CN(C)C(=O)Nc1cccc2ccccc12 | 6.2
C[C@@H]1CN([C@H](C)CO)C(=O)Cc2cc(NC(=O)CCCN(C)C)ccc2O[C@@H]1CN(C)S(=O)(=O)c1cccs1 | 0.7
C[C@@H]1CN([C@H](C)CO)C(=O)c2cc(NC(=O)NC3CCCCC3)ccc2O[C@H]1CN(C)C(=O)Nc1ccc(F)cc1 | -0.8
COc1ccc(CN(C)C[C@H]2Oc3ccc(NC(=O)Nc4ccc(OC)cc4)cc3CC(=O)N([C@H](C)CO)C[C@@H]2C)cc1 | 4.4
C[C@@H]1CN([C@@H](C)CO)C(=O)c2cccc(NS(=O)(=O)c3cn(C)cn3)c2O[C@H]1CN(C)C(=O)Nc1ccc(C(F)(F)F)cc1 | -2.7
Cc1noc(C)c1NC(=O)N(C)C[C@@H]1OCCCC[C@@H](C)Oc2ccc(NC(=O)CCC(F)(F)F)cc2C(=O)N([C@@H](C)CO)C[C@H]1C | -2.1
C[C@@H]1CN([C@@H](C)CO)C(=O)c2cc(NC(=O)Nc3ccccc3)ccc2O[C@@H](C)CCCCO[C@@H]1CN(C)C(=O)Nc1ccccc1 | -13
C[C@H]1CCCCO[C@@H](CN(C)C(=O)CCC(F)(F)F)[C@@H](C)CN([C@@H](C)CO)C(=O)c2cc(NS(=O)(=O)c3ccccc3)ccc2O1 | 1.3
C[C@@H]1CN([C@H](C)CO)C(=O)c2cc(NC(=O)Nc3ccc4c(c3)OCO4)ccc2O[C@@H](C)CCCCO[C@@H]1CN(C)C(=O)CCC(F)(F)F | -1.0
Cc1noc(C)c1NC(=O)Nc1cccc2c1O[C@H](CN(C)C(=O)NC1CCCCC1)[C@@H](C)CN([C@H](C)CO)C2=O | 1.5
C[C@@H]1CN([C@@H](C)CO)C(=O)c2cccc(N(C)C)c2O[C@H]1CN(C)Cc1ccc(Cl)c(Cl)c1 | 0.4
C[C@H](CO)N1C[C@H](C)[C@H](CN(C)C(=O)NC2CCCCC2)Oc2c(NS(C)(=O)=O)cccc2C1=O | 1.8
CC(C)NC(=O)N(C)C[C@@H]1Oc2ccc(NC(=O)CCC(F)(F)F)cc2CC(=O)N([C@H](C)CO)C[C@H]1C | -2.1
COc1ccc(S(=O)(=O)Nc2cccc3c2O[C@@H](CN(C)S(=O)(=O)c2cccs2)[C@@H](C)CN([C@H](C)CO)C3=O)cc1 | -5.1

3 entries already listed, ordered by the number in Ran FRET, largest number first.
SMILES | Ran FRET
C[C@H]1CCCCO[C@@H](CN(C)C(=O)CCC(F)(F)F)[C@@H](C)CN([C@@H](C)CO)C(=O)c2cc(NS(=O)(=O)c3ccccc3)ccc2O1 | 1.3
C[C@@H]1CN([C@@H](C)CO)C(=O)c2cccc(N(C)C)c2O[C@H]1CN(C)Cc1ccc(Cl)c(Cl)c1 | 0.4
COc1ccc(S(=O)(=O)Nc2cccc3c2O[C@@H](CN(C)S(=O)(=O)c2cccs2)[C@@H](C)CN([C@H](C)CO)C3=O)cc1 | -5.1

New compounds follow:
SMILES | Ran FRET
Cc1noc(C)c1NC(=O)Nc1ccc2c(c1)CC(=O)N([C@@H](C)CO)C[C@H](C)[C@@H](CN(C)S(=O)(=O)c1cn(C)cn1)O2 | 0.2
C[C@@H]1CCCCO[C@@H](CN(C)Cc2ccc3c(c2)OCO3)[C@H](C)CN([C@@H](C)CO)C(=O)c2cc(NC(=O)CCCN(C)C)ccc2O1 | -1.1
C[C@@H]1CN([C@@H](C)CO)C(=O)c2cc(NS(=O)(=O)c3cccs3)ccc2O[C@@H](C)CCCCO[C@H]1CN(C)Cc1ccccc1 | -1.7
C[C@H](CO)N1C[C@H](C)[C@H](CN(C)C(=O)Nc2ccc(F)cc2)Oc2ccc(NC(=O)Cn3cnnn3)cc2CC1=O | 1.4
C[C@H](CO)N1C[C@H](C)[C@H](CN(C)S(=O)(=O)c2ccccc2)Oc2ncc(C#Cc3ccc(C(F)(F)F)cc3)cc2C1=O | 13
C[C@H]1CN([C@@H](C)CO)C(=O)c2cc(NC(=O)Nc3ccc(F)cc3)ccc2O[C@H]1CN(C)Cc1ccc2c(c1)OCO2 | -2.3
C[C@H](CO)N1C[C@H](C)[C@H](CN(C)Cc2ccc(C(=O)O)cc2)Oc2ccc(NC(=O)Cc3cn(C)c4ccccc34)cc2CC1=O | 2.0
C[C@@H]1CN([C@H](C)CO)C(=O)c2cc(NC(=O)CCCN(C)C)ccc2O[C@@H](C)CCCCO[C@H]1CN(C)C(=O)Nc1ccccc1 | -2.4
C[C@H]1CCCCO[C@H](CN(C)C(=O)Nc2cccc3ccccc23)[C@@H](C)CN([C@@H](C)CO)C(=O)c2cc(NC(=O)c3ccncc3)ccc2O1 | -3.6
C[C@@H]1CN([C@H](C)CO)C(=O)Cc2cc(NC(=O)Nc3ccc(F)cc3)ccc2O[C@@H]1CN(C)S(=O)(=O)c1cccs1 | 5.1
C[C@@H]1CN([C@@H](C)CO)C(=O)c2cc(NS(=O)(=O)c3cn(C)cn3)ccc2O[C@@H](C)CCCCO[C@@H]1CN(C)C | -1.1
C[C@@H]1CCCCO[C@H](CN(C)C(=O)c2ccccc2)[C@@H](C)CN([C@@H](C)CO)C(=O)c2cc(NC(=O)Nc3ccc(F)cc3)ccc2O1 | 1.2
C[C@@H]1CN([C@H](C)CO)C(=O)c2cc(NC(=O)CCC(F)(F)F)ccc2O[C@H]1CN(C)C(=O)Nc1ccccc1 | 2.3
COc1ccc(S(=O)(=O)N(C)C[C@@H]2Oc3ccc(NS(=O)(=O)c4cn(C)cn4)cc3CC(=O)N([C@@H](C)CO)C[C@H]2C)cc1 | -0.9
C[C@@H]1CN([C@@H](C)CO)C(=O)c2cc(NC(=O)Cc3cn(C)c4ccccc34)ccc2O[C@H]1CN(C)C(=O)NC1CCCCC1 | ?
C[C@@H]1CN([C@@H](C)CO)C(=O)c2cccc(NC(=O)Nc3ccc4c(c3)OCO4)c2O[C@H]1CN(C)C(=O)NC1CCCCC1 | 3.1
C[C@@H]1CN([C@@H](C)CO)C(=O)c2cc(NC(=O)Cc3ccccc3)ccc2O[C@H]1CN(C)CC1CC1 | 2.8
CNC[C@H]1Oc2ccc(NC(=O)C3CC3)cc2C(=O)N([C@H](C)CO)C[C@@H]1C | 2.3
C[C@H]1CN([C@@H](C)CO)C(=O)c2cccc(NC(=O)Nc3cccc4ccccc34)c2O[C@H]1CN(C)C(=O)Nc1cccc2ccccc12 | -0.9
C[C@@H]1CCCCO[C@H](CN(C)C(=O)Nc2cccc3ccccc23)[C@@H](C)CN([C@H](C)CO)C(=O)c2cc(N(C)C)ccc2O1 | -2.7
C[C@H]1CN([C@@H](C)CO)C(=O)c2cccc(NS(C)(=O)=O)c2O[C@@H]1CN(C)Cc1ccc(Cl)c(Cl)c1 | -2.3
C[C@@H]1CCCCO[C@@H](CN(C)C(=O)CCC(F)(F)F)[C@H](C)CN([C@H](C)CO)C(=O)c2cc(NS(=O)(=O)c3ccccc3)ccc2O1 | 6.3
C[C@H](CO)N1C[C@H](C)[C@@H](CN(C)S(=O)(=O)c2ccccc2)OCCCC[C@H](C)Oc2ccc(NC(=O)Nc3ccccc3)cc2C1=O | 5.5
C[C@@H]1CN([C@@H](C)CO)C(=O)c2cc(NC(=O)C3CCCCC3)ccc2O[C@@H](C)CCCCO[C@H]1CN(C)C | ?
Cc1noc(C)c1NC(=O)Nc1cccc2c1O[C@H](CN(C)C(=O)Nc1c(C)noc1C)[C@H](C)CN([C@H](C)CO)C2=O | 1.3
C[C@H]1CN([C@@H](C)CO)C(=O)Cc2cc(NS(=O)(=O)c3cccs3)ccc2O[C@H]1CN(C)CC1CC1 | -2.3
Cc1noc(C)c1S(=O)(=O)Nc1ccc2c(c1)C(=O)N([C@@H](C)CO)C[C@@H](C)[C@H](CN(C)C(=O)CCC(F)(F)F)OCCCC[C@H](C)O2 | -0.2
C[C@@H]1CN([C@@H](C)CO)C(=O)CCCn2cc(nn2)CO[C@H]1CN(C)Cc1ccc2c(c1)OCO2 | 1.6
C[C@@H]1CN([C@H](C)CO)C(=O)Cc2cc(N(C)C)ccc2O[C@@H]1CN(C)S(=O)(=O)c1ccccc1 | ?
C[C@@H]1CCCCO[C@@H](CN(C)C(=O)Nc2ccccc2)[C@H](C)CN([C@H](C)CO)C(=O)c2cc(NC(=O)C3CCCCC3)ccc2O1 | -2.4
C[C@@H]1CCCCO[C@H](CN(C)Cc2ccccc2)[C@@H](C)CN([C@@H](C)CO)C(=O)c2cc(NC(=O)CCC(F)(F)F)ccc2O1 | 1.8
C[C@H](CO)N1C[C@H](C)[C@@H](CN(C)Cc2ccc(Oc3ccccc3)cc2)Oc2c(NS(=O)(=O)c3cccs3)cccc2C1=O | -3.2
C[C@H](CO)N1C[C@H](C)[C@@H](CN(C)CC2CC2)Oc2ccc(NC(=O)c3ccncc3)cc2CC1=O | -2.4
Cc1noc(C)c1NC(=O)N(C)C[C@@H]1OCCCC[C@H](C)Oc2ccc(NC(=O)CCC(F)(F)F)cc2C(=O)N([C@H](C)CO)C[C@H]1C | 4.6
COc1ccc(CN(C)C[C@@H]2Oc3ccc(NC(=O)Nc4ccc5c(c4)OCO5)cc3C(=O)N([C@H](C)CO)C[C@H]2C)cc1 | 2.7
C[C@@H]1CN([C@H](C)CO)C(=O)c2cccc(NC(=O)c3ccncc3)c2O[C@H]1CN(C)C(=O)Nc1cccc2ccccc12 | ?
C[C@H]1CN([C@@H](C)CO)C(=O)Cc2cc(N(C)C)ccc2O[C@H]1CN(C)Cc1ccc(C(F)(F)F)cc1 | -1.2
C[C@@H]1CN([C@@H](C)CO)C(=O)c2cc(NC(=O)Nc3ccc(F)cc3)ccc2O[C@@H]1CN(C)Cc1ccncc1 | 0.6
C[C@H]1CN([C@@H](C)CO)C(=O)c2cc(NC(=O)C3CC3)ccc2O[C@@H]1CN(C)S(=O)(=O)c1cn(C)cn1 | 0.9
C[C@H](CO)N1C[C@H](C)[C@@H](CN(C)C(=O)Nc2ccccc2)Oc2ccc(NC(=O)Nc3ccccc3)cc2C1=O | -2.5

High-throughput results (PubChem BioAssay)
